Source: PubChem BioAssay
Rce1 inh = yeast Rce1p protease inhibitors, primary screen, biochemical, fluorescence, cell-free homogeneous; CAAX prenyl protease 2 (Saccharomyces cerevisiae (strain ATCC 204508 / S288c)), Q03530; yeast membranes, quenched prenylated peptide cleavage fluorescence; calls only; 0.27% of 290,000 active; AID 2563, 2010;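 active = fall in fluorescence gain of 50% or more versus controls, with final raw signal at or below 3038400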;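 note: plate controls were neutral control wells for no effect and wells lacking membranes for full effect; tested at 10 µM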
Target sequence (Q03530 whole entry, looked up): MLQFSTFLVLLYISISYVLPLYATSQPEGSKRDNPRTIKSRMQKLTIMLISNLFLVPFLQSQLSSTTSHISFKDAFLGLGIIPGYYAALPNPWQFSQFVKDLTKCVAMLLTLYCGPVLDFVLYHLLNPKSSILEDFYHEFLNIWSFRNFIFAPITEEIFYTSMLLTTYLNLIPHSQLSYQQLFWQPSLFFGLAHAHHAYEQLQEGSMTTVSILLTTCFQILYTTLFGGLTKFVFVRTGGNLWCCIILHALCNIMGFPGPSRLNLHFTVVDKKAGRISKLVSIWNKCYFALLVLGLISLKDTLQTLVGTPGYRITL
MT1-MMP act inh = blockers of MT1-MMP proenzyme processing, primary screen, HT1080 RFP-PRO-GFP cells, GFP/RFP fluorescence | GFP/RFP ratio fluorescence, overnight; percent of plate control window, DMSO zero | GFP/RFP ratio change, % at 20 µM | 0.061% of 360,000 active;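 active = GFP/RFP ratio change of at least 30% with cell ATP level not reduced by more than half and red fluorescence within 50% of control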; note: strong numbers were not always called active
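Assay system: HT1080 RFP-PRO-GFP cells | Dosing: 20 µM single dose, 1% DMSO | Incubation: Cells overnight before dosing, compound overnight, 37 °C, 5% CO2 | Evaluation: GFP/RFP fluorescence ratio | Control set: DMSO-only wells and HT1080 RFP-L50D-GFP cell wells as references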
Yeast UUG start = modulators of yeast start codon fidelity, primary screen, whole organism, S. cerevisiae, single point, plate reader | S. cerevisiae UUG-firefly luciferase reporter, luminescence/redox ratio | activity score, % at 18.7 µM | 0.13% of 350,000 active | AID 602363, 2012;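 active = replicate mean at a twofold rise or more, about +100% in these data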;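 note: firefly luciferase made from a UUG start codon reports start codon fidelity; reporter light over untreated wells divided by growth signal over untreated wells; some hits fall short of that in this replicate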
CSC inhib = cancer stem cell viability inhibitors, primary screen, luminescence | inhibition, % at 7.5 µM | AID 2717, 2010 | 1.1% of 300,000 active | cancer stem cell-like cells viability;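 active = mean at 75% or more and at least half the replicates too; tested in HMLE shEcad cells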;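 note: 0% = median of negative and 100% = median of positive control wells; the first replicate is given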
PABP FP inh = PABP poly(A) RNA binding inhibitors, primary screen, biochemical, fluorescence polarization, uHTS. 1% of 290,000 active. Polyadenylate-binding protein 1 (Homo sapiens), P11940. AID 2014, 2009. inhibition, % at 35 µM;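 active = 50% or more with normal probe brightness, or confirmed in later tests; about a fifth of its hits are not listed in these tables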;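 note: calls also rest on retests at 20 µM and on dose response follow-up; controls were probe without protein and protein plus probe with vehicle; some compounds called inactive have numbers as strong as hits; many hits fall short of the cut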
Env fusion inh = inhibitors of HIV-1 Env-driven cell-cell fusion, primary screen, HeLa-JRFL effector, CEM21 target cells, luciferase | inhibition, % at 12.3 µM | 1.1% of 360,000 active;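 active = mean replicate inhibition score of at least 50 and every replicate individually at or above 50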;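 note: 0% = plate neutral controls and 100% = maraviroc near 300 nM; one replicate is shown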
eIF4H inh = human eIF4H binding inhibitors, primary screen, translation initiation inhibitor project, biochemical, uHTS, fluorescence polarization | Eukaryotic translation initiation factor 4H (Homo sapiens), Q15056 | AID 2012, 2009 | 0.94% of 290,000 active | inhibition, % at 35 µM | eIF4H fluorescence polarization binding assay;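 active = 50% or more with normal probe brightness, or confirmed in later tests; about a fifth of its hits are not listed in these tables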;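 note: calls also rest on retests at 20 µM and on dose response follow-up; 0% = protein and probe with vehicle and 100% = probe without protein; strong numbers were not always called active; many hits fall short of the cut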
MT1-MMP act inh RFP = second read-out of MT1-MMP act inh, no call of its own (marks repeat the call); RFP signal change, %; measured here: RFP expression control read;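 0 = vehicle wells; hits needed this value within 50% of zero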
Active calls of the source: *; i = inactive; . = no result given.

Results follow in this order: Rce1 inh	MT1-MMP act inh	MT1-MMP act inh RFP	Yeast UUG start	CSC inhib	PABP FP inh	Env fusion inh	eIF4H inh
C=CCn1c(SCC(=O)Nc2nnc(CC)s2)nnc1-c1cccnc1
    i	7	9	-19	-8	7	.	4
CCCN1CCC(=O)N([C@H](CSc2ccc(C)cc2)c2ccccc2)CC1
    i	-5	4	0	11	12	-47	0
Cc1[nH]c(=O)c(C#N)c(C)c1Br
    i	3	2	-20	.	2	.	-11
Cc1ccc(NC(=O)C(C)OC(=O)Cn2[nH]c(=O)c3ccccc3c2=O)cc1 (configuration not stated)
    i	3	1	-7	-8	.	3	.
O=c1cc[nH]c2ccc([N+](=O)[O-])cc12
    i	1	3	.	-13	4	11	10
CC(=O)NC[C@H]1CN(c2ccc(N3CCOCC3)c(F)c2)C(=O)O1
    i	.	.	.	-2	11	.	8
CN(C)CCCN(C(=O)c1ccc(S(=O)(=O)N2CCc3ccccc3C2)cc1)c1nc2c(F)cccc2s1
    i	-2	3	20	-10	-12	2	-11
COc1ccc(N2CCN(C(=O)c3oc4ccccc4c3NC(=O)Cc3ccc(OC)c(OC)c3)CC2)cc1
    i	0	-5	-17	-4	15	18	-22
CC1Sc2ccc(C(=O)Nc3ncccc3O)cc2NC1=O (configuration not stated)
    i	-6	2	-45	7	.	-62	.
COc1cccc2cc(C(=O)OC(C)C(=O)c3ccc(C)cc3)c(=O)oc12 (configuration not stated)
    i	3	-3	-3	4	6	-1	10
COc1ccccc1CC1CC(=O)N(c2ccc([N+](=O)[O-])cc2)C1=O (configuration not stated)
    .	2	0	0	.	.	-8	.
NC(=O)CSc1nnc(Cc2ccc3c(c2)OCO3)n1C1CCCCC1
    i	-3	0	-9	11	-2	.	-3
O=C(CCC1CCCC1)NCCCNC(=O)CCC1CCCC1
    i	-1	-2	-9	0	-5	-408	-2
CCN(CC)S(=O)(=O)c1cc(NC(=O)C2Cc3ccccc3C(=O)O2)ccc1C (configuration not stated)
    i	2	-12	-12	-1	10	11	-3
Cc1cc(=O)oc(C)c1C(=O)N[C@@H](Cc1ccccc1)C(=O)O
    i	-6	-3	-14	-1	-2	-1	-9
O=C(C1CC(=O)N(c2ccc3c(c2)OCCO3)C1)N1CCN(c2ccccc2)CC1 (configuration not stated)
    i	-2	0	9	-3	-21	18	45
CCOC(=O)C1=C(C)N(CCCC(=O)O)C(=O)NC1c1ccccc1OS(=O)(=O)c1ccc([N+](=O)[O-])cc1 (configuration not stated)
    i	0	5	-5	-3	.	-31	.
O=C(N/N=C/c1cn(-c2ccccc2)nc1-c1cccnc1)c1ccccc1
    i	5	1	.	-5	43	-10	3
CCCSc1nnc(N)s1
    i	5	6	-19	-6	-1	10	-3
N#CCCN1CCN(Cn2c3ccccc3c3ccccc32)CC1
    i	-1	-2	-14	5	-1	.	1

Two compounds drawn at random from those above:
Results follow in this order: Rce1 inh	MT1-MMP act inh	MT1-MMP act inh RFP	Yeast UUG start	CSC inhib	PABP FP inh	Env fusion inh	eIF4H inh
COc1ccccc1CC1CC(=O)N(c2ccc([N+](=O)[O-])cc2)C1=O (configuration not stated)
    .	2	0	0	.	.	-8	.
C=CCn1c(SCC(=O)Nc2nnc(CC)s2)nnc1-c1cccnc1
    i	7	9	-19	-8	7	.	4

(listing goes on)
Results follow in this order: Rce1 inh	MT1-MMP act inh	MT1-MMP act inh RFP	Yeast UUG start	CSC inhib	PABP FP inh	Env fusion inh	eIF4H inh
COc1cc(OC)c(C2N(c3ccc(Cl)c(Cl)c3)C(=O)C3CCCN32)cc1OC (configuration not stated)
    i	0	4	-18	2	-1	23	3
Cc1ccc(C)c(S(=O)(=O)N2CCN(C(=O)C3CCN(c4ncnc5sc(C)c(C)c45)CC3)CC2)c1
    i	-4	-28	-15	.	.	.	.
CC(Sc1nc2c(cc1C#N)CCCCC2)C(=O)O (configuration not stated)
    i	.	.	.	3	-7	18	-11
COc1c(O)cc2oc(-c3ccc(O)c(O)c3)cc(=O)c2c1O
    i	16	-7	-41	44	27	-181	20
COC(=O)[C@@]1(Cc2ccccc2)[C@H]2C(=O)N(C)C(=O)[C@H]2[C@H]2CN(C)C(=NCc3ccccc3)N21
    .	3	5	-29	.	.	-22	.
COc1ccc(Oc2ccc(N/C=C3\CCCC3=O)cc2)cc1
    i	-2	-8	-13	14	1	.	5
COCCNC(=O)NC(=O)COC(=O)Cc1ccc2c(c1)OCCO2
    i	1	0	1	-10	-6	11	-3
Cc1ccc(-n2nc3c(=O)n(CC(=O)NCCc4ccco4)nc(C)c3c2C)cc1
    i	-2	-7	-15	4	.	3	.
COc1ccc(CNC(=O)CN(Cc2ccco2)C(=O)CNS(=O)(=O)c2ccc(F)cc2)cc1
    i	2	1	-9	-6	9	8	1
COc1ccc(C2CC(=O)C=C3c4ccc(OC)cc4CCC32)cc1 (configuration not stated)
    .	2	1	4	.	.	37	.
Cc1noc(C)c1COc1cccc(C(=O)OC(C)C#N)c1 (configuration not stated)
    i	1	0	.	18	0	-15	3
CCOC(=O)Cn1cc(C#N)c2ccccc21
    .	-5	1	.	-8	0	2	-14
CC(CNC(=O)c1cc(COc2c(F)cccc2F)on1)Oc1cccnc1 (configuration not stated)
    i	-1	-6	-6	10	-6	-3	-1
CC(=O)c1ccc(NC(=S)NCCCN2CCOCC2)cc1
    i	0	1	.	0	-12	-7	-7
COc1ccc(S(=O)(=O)N2CCOCC2)cc1N(C)S(=O)(=O)c1ccc(C)cc1
    i	-1	-6	7	11	4	2	-6
CCC1(c2ccccc2)NC(=O)N(CC(=O)Nc2ccc(N3CCOCC3)cc2)C1=O (configuration not stated)
    .	2	-2	13	-1	.	.	.
CCc1nc2ccc(C(=O)Nc3ccc4c(c3)OCC(=O)N4)cn2c1N(C)Cc1nccn1C
    .	0	3	-7	.	.	10	.
C/C=C(\C)CN1CCN(c2ccccc2F)CC1
    i	-4	-1	-9	-1	19	-34	1
CC(CC#CCN1CCOCC1)OCCC#N (configuration not stated)
    i	3	7	-18	0	3	.	-3
N=C1SCC(=O)N1c1ccc(Cl)cc1
    i	-2	0	-6	-2	11	29	3
CCOC(=O)COc1cc(N2C(=O)CSCC2=O)c(Cl)cc1Cl
    .	6	5	.	-24	-3	.	-5
S=c1[nH]c2ccccc2n1Cc1ccccc1
    i	11	-3	1	46	-2	3	2
COc1ccc(CN2CCN(C(=O)C3CCC(CNS(=O)(=O)c4ccc(C)cc4)CC3)CC2)c(OC)c1OC (configuration not stated)
    i	4	-8	.	.	0	12	-2
COc1ccc(CCc2nnc(CCC(=O)N(C)Cc3ccnc4ccccc34)o2)cc1
    .	-8	-23	.	-4	-4	30	-3
CCOc1ccc(NC(=O)CSc2ccc3nnc(-c4cccnc4)n3n2)cc1
    i	0	-1	-19	-11	-14	21	2
COc1ccc(N(CC(=O)Nc2cccc(C(C)=O)c2)S(=O)(=O)c2ccc(NC(C)=O)cc2)cc1
    i	2	2	-11	-22	-6	-1	3
Cc1nc2sc(C(c3ccco3)N3CCC(Cc4ccccc4)CC3)c(O)n2n1 (configuration not stated)
    i	0	-3	-7	13	4	82*	-5
Cc1cc(C(=O)COC(=O)C2=NNC(=O)CC2)c(C)n1-c1ccccc1
    i	-2	0	-29	.	6	.	-8
CCOc1ccccc1-n1c(SCC(=O)Nc2nccs2)nnc1-c1ccoc1C
    i	-2	0	-11	-4	-11	-43	-5
CCN1C(=O)[C@H]2[C@@H](c3ccc(-c4ccc(F)cc4)c(OC)c3)N3CCC[C@@]3(C(=O)OC)[C@H]2C1=O
    i	-5	-7	-13	8	.	-17	.
CCN(Cc1nc(-c2cccc(Cl)c2)no1)CC1CCCO1 (configuration not stated)
    i	-2	0	.	7	-4	-1	-1
O=C(CSCCO)Nc1nccs1
    i	1	3	-18	1	1	.	-3
Cc1ccc(C(=O)NC2CC(C)(C)NC(C)(C)C2)cc1S(=O)(=O)N1CCOCC1
    .	2	2	-13	.	.	-4	.
O=C1NCCC/C1=N/Nc1ccc(F)cc1
    i	.	.	.	-1	-2	9	3
COC(=O)c1cc(S(=O)(=O)N2CCN(C3CCCCC3)CC2)c[nH]1
    i	4	4	-7	-13	-15	.	8
COc1ccc(N2C(=O)N3[C@@H]4c5ccccc5OC[C@@H]4[C@@H](c4ccccc4)[C@@]3(C)C2=O)cc1
    .	-1	-1	-13	-22	.	-3	.
CCC(C)c1ccc(NC(=S)NCc2cccnc2)cc1 (configuration not stated)
    i	0	-10	-16	1	27	.	2
CC1CCc2c(C(=O)NCCN3CCOCC3)csc2C1 (configuration not stated)
    i	1	5	-6	0	0	-18	-4
CCOC(=O)C1=C(COC(=O)COc2ccccc2OCC)NC(=O)NC1C (configuration not stated)
    i	-2	3	-2	-4	.	-3	.
CCN1CCc2nc3ccccc3c(C(=O)Nc3ccc(NC(C)=O)cc3)c2C1
    i	-2	3	-18	5	-4	-51	7
Cc1cc(OCc2cc(C(=O)N3CCC(Oc4cccnc4)CC3)no2)cc(C)c1Cl
    .	-4	-17	-15	77*	0	67*	-14
O=S(=O)(NCc1ccc2c(c1)OCO2)c1ccc(Cl)s1
    i	-1	2	-1	33	-3	-2	1
CC(=O)Nc1ccc(NC(=O)CNC(=O)c2cccc(C)c2)cc1
    i	-4	-4	-2	9	2	8	1
O=C1c2ccccc2S(=O)(=O)c2cc(C(=O)N3CCC(C(=O)N4CCCCC4)CC3)ccc21
    i	.	.	.	-4	.	10	.
CC(C)(C)N(Cc1ccccc1)C(=O)COC(=O)c1ccc(N2CCCC2=O)cc1
    .	4	1	-14	.	.	4	.
Cc1ccc(S(=O)(=O)N(C)C)cc1NC(=O)c1cc(S(=O)(=O)N2CCCCC2)ccc1N1CCOCC1
    .	2	4	-2	.	.	5	.
Cc1cc(Oc2ccccc2)nc(-c2ccccc2O)n1
    .	3	-3	-12	13	-13	.	-1
Cc1ccccc1SCC(=O)NCC(c1ccc(F)cc1)N1CCOCC1 (configuration not stated)
    .	-3	-4	-7	-9	.	1	.
O=C(CSc1nc(C2CC2)nc2ccccc12)N1CCc2ccccc21
    .	-5	-3	-10	.	.	-7	.
CCOC(=O)C1CCN(C(=O)Nc2ccc(OCc3ccccc3)cc2)CC1
    i	0	-1	1	8	9	-9	-1
COc1ccccc1N(CC(=O)NCc1ccco1)S(=O)(=O)c1ccc(C)cc1
    i	-2	2	-5	-38	73*	11	87*
O=S(=O)(c1ccc(Br)s1)N1CCN(c2ccccn2)CC1
    i	4	-3	-5	1	4	.	-4
NNC(=O)CSCc1ccc(Cl)cc1Cl
    i	1	-1	.	-9	-4	10	-7
CCCCOP(=O)(c1ccc(N(C)C)cc1)C(O)c1ccc(OC)cc1 (configuration not stated)
    i	1	2	-15	6	13	-5	1
CCN(CC)C(=O)N1c2ccccc2CC(N(CC)CC)c2ccccc21 (configuration not stated)
    i	-4	-2	.	-10	2	.	1
NS(=O)(=O)c1cccc(NC(=O)CSc2nc3ccccc3c(=O)n2CCCN2CCOCC2)c1
    i	12	6	-19	2	2	-20	1
CC(=O)c1cccc(N2C(=O)Nc3ccccc3N2O)c1
    i	2	3	-17	-11	12	3	1
CC1(C)CC(=O)C/C(=N/NC(=O)C2CCN(S(=O)(=O)c3cccs3)CC2)C1
    i	1	4	.	-14	-4	-6	1

The order is random. Share with any hit: about 3%.
